Assay outcomes (PubChem)
PrP 5UTR inh: inhibition of PrP 5' UTR reporter expression | 340,000 tested, 0.35% active | inhibition, % (test concentration not listed) | cell-based PrP 5' UTR mRNA reporter, plate reader | AID 488862, 2010;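 active = every replicate at 50% or more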;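 note: 0 = median of the neutral control wells; tested in H4 reporter cells; numbers are from one replicate; inactives centre near -14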
ugtP null kill: growth inhibition of ugtP-null S. aureus, primary screen, RN4220 ugtP deletion, OD600. 330,000 tested, 0.54% active. AID 1259309, 2017. growth inhibition, % (no concentration beside the values). 16 h; some inactives read as strong as hits;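 active = z-score under -3 and OD600 up to 0.15 on both plates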;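 note: plate controls were untreated wells for no effect and antibiotic for full effect; wells of about 80 µL received 100 nL stock; the first replicate is given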
Bead autofluor: flagged as autofluorescent in microsphere protease counterscreen. compound autofluorescence counterscreen, microsphere flow cytometry; stronger effect = higher value. fluorescence intensity (test concentration not listed). 360,000 tested, 3.1% active. AID 624483;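 active = at least 3 SD above the mean of all compounds, about 16000 in these data; inconclusive = too few beads counted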;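 note: 100 nL of 1 mM stock went into each well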
BJeLR viability: MLPCN primary cell-based screen for lethality selective to Ras in HRASV12 cells; BJeLR (HRASV12) viability, CellTiter-Glo ATP luminescence, 48 h; reference of the scale not given here; inhibition, % (no concentration beside the values); 300,000 tested, 0.17% active; AID 1554, 2009;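 active = replicate mean above 50%; inconclusive = above 50% but judged a plate artefact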;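 note: 50 nL library stock added to about 25 µL; numbers are from one replicate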
Mtb hypoxia rep: PubChem AID 1159583 | M. tuberculosis hypoxia-regulated fluorescent reporter, fluorescence | fluorescence inhibition, % (concentration not given with the values) | 300,000 tested, 0.1% active;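 active = 35 to 45% if threefold the growth effect, above 45% if 1.5-fold the growth effect; inactive = the rest, general growth blockers included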;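 note: wells of about 50 µL received 100 nL stock; 0% = vehicle wells and 100% = reference inhibitor wells; whole bacteria with a GFP reporter of the hypoxia response; strong numbers were not always called active; many hits fall short of the cut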
RN4220 kill: growth inhibition of S. aureus RN4220, primary screen, OD600 | 330,000 tested, 0.33% active | 16 h | inhibition, % (test concentration not listed);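 active = z-score of -3 or lower and OD600 up to 0.18 on both plates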;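 note: plate controls were untreated cells for no effect and reference antibiotic for full effect; stock transfer was 100 nL into about 80 µL; one replicate is shown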
Mtb hypoxia rep growth: further read-out of Mtb hypoxia rep, marked with its call; growth inhibition, %; measured here: M. tuberculosis growth (absorbance);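 0% = vehicle and 100% = reference antibiotic; read after six days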
The depositor's hits bear a star; ? = inconclusive; . = no result given.

The first 4 entries (preview)
SMILES	PrP 5UTR inh	ugtP null kill	Bead autofluor	BJeLR viability	Mtb hypoxia rep	Mtb hypoxia rep growth	RN4220 kill
O=C(Nc1ccc(Cl)c(S(=O)(=O)N2CCOCC2)c1)C1=NN(c2ccccc2)C(=O)CC1	-10	-2	3845	.	-2	7	0.1
CCn1c(SCC(=O)Nc2cc(C)on2)nnc1-c1ccco1	12	2	4382	-5	.	.	8.3
Cn1c(C(=O)N2CCCC(C(=O)NCc3ccccc3)C2)cc2sccc21 (stereo not given)	-6	5	4986	-6	9	16	3.0
Cc1ccc(NP(=O)(c2ccc(N(C)C)cc2NC(=O)c2cccs2)N2CCOCC2)cc1 (stereo not given)	-5	1	2101	-3	-1	4	5.8

This part in full, from the start:
SMILES	PrP 5UTR inh	ugtP null kill	Bead autofluor	BJeLR viability	Mtb hypoxia rep	Mtb hypoxia rep growth	RN4220 kill
O=C(Nc1ccc(Cl)c(S(=O)(=O)N2CCOCC2)c1)C1=NN(c2ccccc2)C(=O)CC1	-10	-2	3845	.	-2	7	0.1
CCn1c(SCC(=O)Nc2cc(C)on2)nnc1-c1ccco1	12	2	4382	-5	.	.	8.3
Cn1c(C(=O)N2CCCC(C(=O)NCc3ccccc3)C2)cc2sccc21 (stereo not given)	-6	5	4986	-6	9	16	3.0
Cc1ccc(NP(=O)(c2ccc(N(C)C)cc2NC(=O)c2cccs2)N2CCOCC2)cc1 (stereo not given)	-5	1	2101	-3	-1	4	5.8
CC(=O)CC(C)(C)NC(C)=S	-8	6	3781	-1	8	7	4.4
COc1cccc(C(=O)NN2CC(O)=C(c3nc(C)cs3)C2=N)c1	-19	5	4403	5	3	2	5.7
Cc1ccc(S(=O)(=O)NCC(=O)OCC(=O)NCc2ccc(F)cc2)cc1	-4	-6	2580	0	-3	-1	-1.3
COc1ccc(/C=C(\C#N)C(=O)NCCCn2ccnc2)cc1	-26	5	2203	-13	1	18	5.6
Cc1cc(C)c2c(c1)cc(C)c1nnc(SCC(=O)Nc3cc(C)on3)n12	-43	6	8362	4	4	6	2.5
CCOP(=S)(OCC)SCC(=O)NC(C(=O)O)C(C)C (stereo not given)	0	-1	3610	-5	1	-1	1.7
COc1ccccc1CNC(=O)C(=O)NCCC1CCCCN1S(=O)(=O)c1cccs1 (stereo not given)	5	5	5621	-2	1	-3	-0.7
O=C(/C=C/c1cccc(F)c1)c1ccc(N2CCOCC2)cc1	-61	-2	4969	18	7	2	5.0
O=C(COC(=O)CNC(=O)c1ccc([N+](=O)[O-])o1)Nc1ncc(Cl)cc1Cl	-4	1	8643	.	12	10	-0.6
COc1ccc(Br)cc1C=NNC(=O)c1ccc2nc[nH]c2c1	.	12	.	.	6	-2	3.3
CCCOc1ccc(C(O)=C2C(=O)C(=O)N(CCCn3ccnc3)C2c2cccs2)cc1 (stereo not given)	.	1	.	.	2	7	4.1
C[C@@H](C(=O)NCc1ccccc1)[C@@H]1C[C@@]1(C)[C@@H](NC(=O)OCc1ccccc1)c1ccccc1	-5	.	4207	4	.	.	.
COc1ccc(/C=C2\CCC/C(=C\C=N\N(C)C)C2=O)cc1	-34	.	4757	15	.	.	.
CCOCCCn1c(SCC(=O)Nc2cc(OC)ccc2OC)nc2ccccc2c1=O	2	0	?	-7	5	10	1.8
CC(=O)Nc1ccc(C(=O)N(C)C(C(=O)Nc2ccc(C)cc2)c2ccccn2)cc1 (stereo not given)	-62	0	2491	-7	-2	13	5.8
COc1ccc(C(=O)Nc2ccc(C(=O)N3CCOCC3)cc2)cc1OC	-13	5	3481	5	7	8	1.6
O=S(=O)(NN=Cc1cccn1-c1ccccc1)c1ccc2ccccc2c1	.	-1	.	.	3	4	4.9
COc1ccc(C=NNC(=O)c2ccccc2F)cc1CN1CCN(c2ccc(F)cc2)CC1	.	-4	.	.	-13	-16	12
COc1ccc(CC(=O)N2CC3(C)CC2CC(C)(C)C3)cc1 (stereo not given)	-7	-4	12378	1	0	6	4.9
CCn1cc(C(=O)NCC(C)C)c(=O)c2cc(F)c(N3CCN(C(=O)c4ccco4)CC3)cc21	-11	17	4141	-1	-2	-2	3.5
Cc1c(Cc2ccccc2)c(=O)oc2cc(O)ccc12	-19	2	4159	0	9	4	4.7
COc1ccc(C(Nc2ccccc2)P(=O)(Oc2ccccc2)Oc2ccccc2)cc1 (stereo not given)	-21	.	9921	-5	.	.	.
COc1ccc(C(C(=O)Nc2ccc(C(C)C)cc2)N(Cc2ccco2)C(=O)CC2NC(=O)NC2=O)cc1 (stereo not given)	-21	12	4567	12	-8	0	-1.5
O=C(Nc1ccc(N2CCN(C(=O)c3ccco3)CC2)cc1)c1cccs1	-16	-3	4168	-10	-6	14	0.9
COc1ccc(Cn2nnnc2C(c2ccccc2Cl)N2CCN(C3CCCC3)CC2)cc1 (stereo not given)	-7	6	2425	4	.	.	3.4
CCCCn1c2nc3ccccc3nc2c2c(=N)oc(C)nc21	-19	-7	6091	.	-10	9	4.4
COc1ccc(C)cc1S(=O)(=O)Nc1ccc(-n2c(C)nc3ccccc3c2=O)cc1	-1	2	3990	23	1	-3	3.4
Cc1cc(OCC(=O)Nc2ccc(CN3CCOCC3)cc2)c2c(C)c(C)c(=O)oc2c1	-12	4	5450	-3	6	-9	2.8
CCCC(=O)NCc1ccccc1Cl	-16	0	3205	2	.	.	0.4
CCCOc1ccc(/C(O)=C2/C(=O)C(=O)N(c3cc(C)on3)C2c2ccc(C(=O)OC)cc2)cc1 (stereo not given)	-24	-2	4180	2	.	.	0.7
COc1ccccc1CC(=O)Nc1ccc([N+](=O)[O-])cc1O	-23	4	4835	4	2	-1	6.7
CCc1ccc(OCC(=O)OC(C)C(=O)Nc2ccc(Cl)cn2)cc1 (stereo not given)	-15	9	2908	.	5	-6	9.3
Cc1cc(OCC(=O)Nc2ccncc2)c(C)cc1Br	4	-19	15953	15	4	-1	-2.1
CCCCN(CC)S(=O)(=O)N1CCC(C(=O)NCCCN2CCOCC2)CC1	3	3	2572	11	-2	-1	-4.1
O=C(c1cc(C2CC2)nn1-c1ccccc1)N1CCN(S(=O)(=O)c2c(F)cccc2F)CC1	-14	7	3491	.	8	9	2.0
Cc1ccc(C)c(N2CCN(C(=O)CCCn3ncn4c(cc5occc54)c3=O)CC2)c1	-22	-1	6925	13	-2	2	-2.7
N#C/C=C1/NC(=O)c2ccccc2S1	-6	.	3064	19	.	.	.
COCCNC(=O)c1cc(-c2ccc(OC)c(OC)c2)on1	.	8	11064	-4	8	6	3.2
CCN1CCN(C(=O)CSc2cc(=O)n(C)c3ccccc23)CC1	-20	1	2408	3	10	3	3.6
Clc1ccc(OCCSc2ncccn2)c(Br)c1	-82	33	4777	-1	4	0	13
COc1ccc(NS(=O)(=O)c2ccc(N3CC(O)=C(c4ccccc4)C3=N)cc2)cc1	-21	-8	4832	-2	-9	-4	2.6
COc1cc(C(=O)NCc2nnc(SCC(=O)N3CCCC3)o2)cc(OC)c1OC	-9	8	4141	-13	-1	-7	3.4
CCCCOc1ccc(NC(=O)CN2CCN(CC)CC2)cc1	-80	12	3763	-3	13	-3	3.6
CCOC(=O)C1=C(CC)Nc2ccccc2N=C1NC(=O)Nc1ccc(Cl)c(Cl)c1	-21	100*	4738	12	-7	0	101*
CCCc1cc(=O)oc2c(CN3CCCC3)c(O)ccc12	-5	3	4114	-2	.	.	1.0
CC(=O)c1cccc(NC(=S)NC2CCCCC2)c1	-17	3	2558	2	-5	-5	4.4
CC(C)N(C(=O)[C@H]1CC(CC(=O)NCCc2ccccn2)C(=O)N2CCc3c([nH]c4ccccc34)[C@]12C)C(C)C (stereo not given in full)	-32	1	3926	.	-11	-8	-0.3
O=c1oc2ccccc2c(NC2CCCCC2)c1NS(=O)(=O)c1ccc(Br)cc1	-15	-28	5270	-5	6	1	-2.1
COc1cccc(CNC(=O)CCC(=O)N2CCOCC2)c1	18	1	2925	.	-7	-14	-2.2
S=C(NCc1cccs1)Nc1ccccc1	-25	-5	2448	-2	2	-1	1.0
CC(C)n1ncc2c(C(=O)NCCc3ccc(S(N)(=O)=O)cc3)cc(C3CC3)nc21	-11	13	.	.	14	5	4.4
CCOC(=O)C1CCCN(c2oc(-c3ccc(OC)cc3)nc2C#N)C1 (stereo not given)	15	-3	4053	-7	-3	-8	12
CCOc1ccc(S(=O)(=O)NN)cc1	-8	-1	3874	3	.	.	-0.5
COc1ccc(CN(C)S(=O)(=O)c2ccc3c(c2)OCCO3)cc1	-10	3	5557	6	2	10	5.6
Cc1cc(Cl)ccc1OCC(=O)Nc1ccccc1CO	-30	4	4999	12	.	.	2.5
CC(C)c1nnc(NC(=O)CC(C)c2ccccc2)s1 (stereo not given)	-34	11	3517	-9	7	-2	2.2

(list continues)
SMILES	PrP 5UTR inh	ugtP null kill	Bead autofluor	BJeLR viability	Mtb hypoxia rep	Mtb hypoxia rep growth	RN4220 kill
CCN(CC(=O)Nc1ccccc1SC)Cc1nc2ccccc2c(=O)[nH]1	-16	7	4735	-1	5	2	0.7
Cc1ccc(CSCCNC(=O)CSCc2ccc([N+](=O)[O-])cc2)cc1	-3	-12	20785*	2	-8	0	-3.7
Cc1ccc(-c2nc(-c3ccccc3)no2)cc1	9	0	3160	11	10	16	-1.3
CCCOc1ccc(-c2c(C(=O)NN=Cc3cccs3)nnn2-c2nonc2N)cc1	.	-2	.	.	7	14	-4.6
CCOC(=O)c1cn2nc(SCc3ccccc3)nc2nc1C	-18	11	3169	-7	7	5	3.4
COc1ccc(OCc2cn3c(C)cc(C)nc3n2)cc1	-27	-1	2109	-8	-9	-2	0.4
Cc1c(Cl)cccc1NC(=O)Cn1cc(C(F)(F)F)cc(Cl)c1=O	-15	-4	2440	9	-12	3	6.8
c1ccc(-c2nnc(OCC3CCCO3)c3ccccc23)cc1 (stereo not given)	-18	5	3497	7	12	5	5.2
CC(=O)N1c2ccc(S(=O)(=O)N3CCCC(C(=O)NC4CCCC(C)C4C)C3)cc2CC1C (stereo not given)	-18	5	5172	0	-2	-2	5.1
O=C(CSc1nnc(NC(=O)c2ccco2)s1)Nc1cccc(F)c1	-4	-9	5240	-1	10	12	0.5
O=C(CN1CCCC1)Nc1cccc(Cl)c1	-16	2	3148	-4	4	1	2.5
O=C(COC(=O)c1ccc(F)cc1F)NCCC1=CCCCC1	-15	-4	6265	.	7	7	-0.2
CCOC(=O)CNC(=O)CSc1ncnc2c1cnn2-c1ccc(C)cc1	-10	12	3568	-1	.	.	1.8
CCOC(=O)c1nnc(-c2cccs2)nc1NC(C)C	-1	14	4159	-4	7	8	6.8
Cc1ccc(Nc2nc(NCCO)c3ccccc3n2)cc1C	-28	.	4711	-5	.	.	.
O=C1c2ccccc2C(=O)c2c(NCc3cccnc3)cccc21	14	-1	8961	-7	2	2	5.7
COc1cc(C2NC(=O)NC(C)=C2C(=O)OC2CCCCC2)cc(Br)c1O (stereo not given)	-4	-6	5709	-12	8	7	6.3
O=C(COc1ccc(Br)cc1)Nc1nc(-c2cccnc2)cs1	-23	-13	5182	-8	-7	3	-1.9
CCOC(=O)N1CCN(C(=O)CSc2nc3ccccc3c(=O)n2-c2ccccc2)CC1	-13	0	5075	-3	.	.	0.2
O=C(NCCc1ccc2c(c1)OCCO2)c1ccc(F)cc1	-14	4	3062	4	3	6	1.7

Shown as labelled records: part of the list above.
> CCOC(=O)N1CCN(C(=O)CSc2nc3ccccc3c(=O)n2-c2ccccc2)CC1
  PrP 5UTR inh: -13
  ugtP null kill: 0
  Bead autofluor: 5075
  BJeLR viability: -3
  Mtb hypoxia rep: .
  Mtb hypoxia rep growth: .
  RN4220 kill: 0.2
> CCOC(=O)CNC(=O)CSc1ncnc2c1cnn2-c1ccc(C)cc1
  PrP 5UTR inh: -10
  ugtP null kill: 12
  Bead autofluor: 3568
  BJeLR viability: -1
  Mtb hypoxia rep: .
  Mtb hypoxia rep growth: .
  RN4220 kill: 1.8

Later entries
SMILES	PrP 5UTR inh	ugtP null kill	Bead autofluor	BJeLR viability	Mtb hypoxia rep	Mtb hypoxia rep growth	RN4220 kill
CC(C)(C)C(=O)N(Cc1ccc(Cl)cc1)Cc1cccnc1	-14	-2	5885	-10	6	11	3.0
CCS(=O)(=O)Nc1cccc(C2=NN(S(=O)(=O)c3ccccc3)C(c3ccco3)C2)c1 (stereo not given)	-21	19	4856	-2	-10	10	5.7
C[C@@H]1CCC(=O)N(CC[C@H](N=[N+]=[N-])c2ccccc2)CC1	-7	.	4062	8	.	.	.
Fc1ccccc1CSCc1nc2ccccc2[nH]1	-101	1	4645	-6	-7	8	2.0
CC(C)c1ccc(C(=O)CSc2n[nH]c(-c3ccncc3)n2)cc1	-5	6	2630	0	.	.	6.0

Rows were taken by chance; overall some 4.1% were active at least once.
